Compound activity from PubChem.
LASV entry inh = inhibitors of Lassa virus binding or cell entry | Lassa virus pseudotype entry inhibition, cell reporter; control for the full effect not named in the record | 300,000 tested, 1.2% active | AID 540256 | Potency, µM (highest dose often 37.9 µM), for the others: top-dose activity change, negative = inhibition, usual class: inhibitors; active means well fitted inhibition curve with a large enough effect; inconclusive means small, poorly fitted or top-dose-only effect, or effect the other way; inactive means flat fitted curve, though single readings scatter; tested in HEK293 cells; also: % is scaled to controls: 0 for no effect and ±100 for the full control effect; nearly all actives have a fitted effect of over 50% in size; luciferase read-out
NS1 function inh = inhibitors of influenza NS1 protein function; S. cerevisiae slowed by influenza A NS1, growth recovery by OD600; Potency, µM (titrated, usually from 46.1 µM), inactives show at the top dose activity, positive = more growth; 270,000 tested, 0.4% active; AID 2326; also: actives are rising curves; nearly all actives have a fitted effect of over 50% in size
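Growth recovery, yeast-based: influenza A NS1 expressed in S. cerevisiae causes slow growth, and suppressors are detected by OD600. The parent strain without NS1 is used as positive control.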
RE007 growth inh = less growth of the S. pombe RE007 Vpr strain | S. pombe RE007 Vpr strain, BacTiter-Glo ATP luminescence, 24 h; control for the full effect not named in the record | Potency, µM (series often up to 92.2 µM), inactives show at the top dose activity change, negative = less growth | 360,000 tested, 0.21% active | AID 651644; active = well fitted falling curve with a large enough effect; inconclusive = small, poorly fitted or top-dose-only effect; inactive = no such curve, though single readings can be large or run the other way;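 also: % is scaled to controls: 0 for no effect and ±100 for the full control effect; nearly all actives have a fitted effect of over 50% in size; the assay follows cell death caused by Vpr and the record does not say whether a fall means rescue or toxicity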
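Fission yeast strain RE007, carrying one chromosomally integrated HIV-1 vpr copy, was seeded at OD 0.01 in PMG+AL medium with 23 nL pinned compound. After 24 h at 30 °C and 99% humidity, viability was read by BacTiter-Glo luminescence.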
StopGo reporter = lowers the luciferase signal of an FMDV 2A StopGo reporter; human cells with a luciferase reporter of 2A StopGo recoding; control for the full effect not named in the record; Potency, µM (highest dose often 57.9 µM), without a hit: at the highest dose signal change, negative = less light; 410,000 tested, 1.2% active; AID 1159524; active = well fitted falling curve with a large enough effect; inconclusive = small, poorly fitted or top-dose-only effect; inactive = no such curve, though single readings can be large or run the other way; tested in HEK293T cells; also: % is scaled to controls: 0 for no effect and ±100 for the full control effect; nearly all actives have a fitted effect of over 45% in size; luciferase light after 4 h
Cruzain inh Det = inhibitors of Trypanosoma cruzi cruzain with detergent; 200,000 tested, 0.43% active; P25779; purified cruzain, Z-FR-AMC fluorescence, 0.01% Triton; Potency, µM, without a hit: max response, negative = inhibition, actives largely listed as inhibitors; active = well fitted curve in the direction sought with a large enough effect; inconclusive = small, poorly fitted or top-dose-only effect, or another doubt; inactive = no such curve, though single readings can be large; an effect the other way counts as inactive or inconclusive;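 also: plate controls were neutral wells for no effect and buffer without enzyme for full effect; nearly all actives have a fitted effect of over 40% in size; top concentration of the series not given in the record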
Target sequence (P25779 123-467 limits assumed): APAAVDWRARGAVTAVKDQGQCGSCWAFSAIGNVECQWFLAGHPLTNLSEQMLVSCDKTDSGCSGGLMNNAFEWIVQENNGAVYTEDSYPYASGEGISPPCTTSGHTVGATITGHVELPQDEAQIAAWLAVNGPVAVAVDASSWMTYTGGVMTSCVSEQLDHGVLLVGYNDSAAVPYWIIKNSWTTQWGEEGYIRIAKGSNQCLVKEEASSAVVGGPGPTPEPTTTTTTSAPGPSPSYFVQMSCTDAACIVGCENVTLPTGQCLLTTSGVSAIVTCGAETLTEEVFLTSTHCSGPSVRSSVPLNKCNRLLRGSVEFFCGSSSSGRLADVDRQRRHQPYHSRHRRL
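Cysteine protease activity tested under reducing, mildly acidic conditions (100 mM sodium acetate pH 5.5, 5 mM DTT) plus 0.01% Triton X-100. Cruzain 1.5 nM; substrate Z-FR-AMC 2 uM; 15 min compound preincubation at room temperature.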
SARS PLP yeast = SARS-CoV PLP inhibition in yeast; Potency, µM (highest dose often 32.9 µM), for the others: at the highest dose activity, positive = growth rescue; 330,000 tested, 0.19% active; AID 485353; S. cerevisiae expressing SARS-CoV PLpro, growth rescue; control for the full effect not named in the record; also: 0% is about no effect; nearly all actives have a fitted effect of over 55% in size; growth read by luminescence after 48 h
Cruzain noTriton = cruzain (T. cruzi) inhibition without detergent; P25779; purified cruzain, Z-FR-AMC fluorescence, no detergent; Potency, µM, for inactives: max response, negative = inhibition, hits mostly inhibitors; 200,000 tested, 2.3% active; AID 1476; active = well fitted curve in the direction sought with a large enough effect; inconclusive = small, poorly fitted or top-dose-only effect, or another doubt; inactive = no such curve, though single readings can be large; an effect the other way counts as inactive or inconclusive;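 also: plate controls were enzyme without inhibitor for no effect and buffer without enzyme for full effect; nearly all actives have a fitted effect of over 40% in size; top concentration of the series not given in the record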
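Purified cruzain at 1.5 nM, pre-incubated 15 min with compound at room temperature in 100 mM sodium acetate pH 5.5, 5 mM DTT, 0.00005% Triton X-100. Reaction started with 2 uM Z-FR-AMC; AMC fluorescence increase over 60 s gives rate.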
MARV entry inh = inhibitors of Marburg virus binding or cell entry; Marburg virus pseudotyped entry inhibition, cell reporter; control for the full effect not named in the record; about a third of the inactives were read at about 46 µM; Potency, µM (highest dose often 37.8 µM), inactives show at the highest dose activity change, negative = inhibition, actives largely listed as inhibitors; 300,000 tested, 1.8% active; AID 540276; active = well fitted inhibition curve with a large enough effect; inconclusive = small, poorly fitted or top-dose-only effect, or effect the other way; inactive = flat fitted curve, though single readings scatter; tested in HEK293 cells; about a fifth of its hits are not listed in these tables; also: % is scaled to controls: 0 for no effect and ±100 for the full control effect; luciferase read-out
Active calls of the source: *; ? = inconclusive; . = no result given; & = joins results of further samples; ! = a repeat was not active; [ ] = remark or other dose. Unless noted, calls follow the shape of the dose curve; as a rule, active means well fitted rising curve with a large enough effect; inconclusive means small, poorly fitted or top-dose-only effect; inactive means no such curve, though single readings can be large or run the other way. Potency is read from the fitted curve at half-maximal effect.

entry | Structure | LASV entry inh | NS1 function inh | RE007 growth inh | StopGo reporter | Cruzain inh Det | SARS PLP yeast | Cruzain noTriton | MARV entry inh
1 | Cc1c(NC(=O)CN2c3ccccc3CC2C)c(=O)n(-c2ccccc2)n1C (stereo unspecified) | 4% | . | -6% | 17% | . | 2% | . | 4%[46.1 µM]
2 | CC(=O)Nc1ccc(N2CCCC2)cc1 | -6% | 4% | 1% | -2% | -4.7% | 7% | -2% | 1%
3 | COc1ccccc1NC(=O)c1oc2ccccc2c1NC(=O)c1ccccc1C(F)(F)F | ? | . | . | 3% | -3.3% | . | -1% | ?
4 | CN(C(=O)c1ccc([N+](=O)[O-])cc1)c1ccccc1C(=O)NCc1ccccc1 | 3% | 5% | 1% | -4% | . | 14% | . | 17%
5 | O=S(=O)(Nc1cc(C(F)(F)F)ccc1N1CCOCC1)c1ccccc1 | . | 3% | -8% | -13% | . | 1% | . | .
6 | Cc1[nH]c2ccccc2c1C(Nc1nccs1)c1ccncc1 (stereo unspecified) | 12% | 0% | 15% | -11% | -3.7% | -4% | 4% | -10%
7 | CC1CCCC(C)N1/N=C/c1ccc(O)c(O)c1 (stereo unspecified) | . | 2% | -11% | -4% | . | 5% | . | .
8 | COC(=O)CSc1nc(C)cc(C)n1 | 12% | . | -2% | 0% | . | -6% | . | ?
9 | CC(C)CC(OC(=O)c1cccs1)C(=O)NCc1cccs1 (stereo unspecified) | -12% | -4% | 3% | 15% | 3.8% | -12% | -3% | -12%
10 | Cc1ccc2c(CN3CC(C)CC(C)C3)cc(=O)oc2c1 (stereo unspecified) | -17% | 2% | 2% | 3% | . | 0% | . | -19%
11 | COc1ccc(C(=O)Nc2ccc(-c3ccc(C)o3)cc2)cc1S(=O)(=O)N1CCOCC1 | 7.9µM* | 2% | -20% | 10µM* | -4.8% | 11% | ? | 13µM*
12 | COc1ccc(N2CCN(c3nc4c(c(=O)n(C)c(=O)n4C)n3Cc3ccccc3)CC2)cc1 | 8.9µM* | -59% | 33% | -28% | 3.2% | -3% | ? | 10µM*
13 | COc1cc2c(cc1OC)CN(C(=O)C1CCCN1S(=O)(=O)c1ccc(C)cc1)CC2 (stereo unspecified) | . | 2% | 2% | -11% | . | -2% | . | .
14 | CSc1ccc(CNc2ccc(C)cc2)cc1 | 6% | -12% | -23% | . | -0.6% | 0% | 3% | 0%
15 | O=C1CC(NCc2ccc(F)cc2)C(=O)N1c1ccccc1 (stereo unspecified) | -7%[46.1 µM] | 1% | -10% | -10% | . | -3% | . | 3%[46.1 µM]
16 | Cc1cc(C)n(C(=O)C(C)n2nc([N+](=O)[O-])c(Br)c2C)n1 (stereo unspecified) | 0% | 8% | 8% | 1% | 1.4% | 5% | 4% | -15%
17 | Cc1ccc2occ(CC(=O)N(Cc3ccc(N(C)C)cc3)C3CCS(=O)(=O)C3)c2c1 (stereo unspecified) | -17%[46.1 µM] | . | . | -20% | -6.2% | . | 13% | 4%[46.1 µM]
18 | CCN1C(=O)C(CC(=O)Nc2ccc(F)cc2)N(CCc2ccc(OC)cc2)C1=S (stereo unspecified) | ? | -2% | 3% | 11% | . | -1% | . | -28%[46.1 µM]
19 | CCN1C(=O)C=CC1=O | 7% | -3% | . | . | -2.0% | . | -11% | 28µM*!
20 | CC(=O)c1c(N2CCOCC2)nc(=S)n(Cc2ccccc2)c1C | -12% | -5% | 3% | 1% | 2.1% | -12% | -14% | 16%

The listing continues.
entry | Structure | LASV entry inh | NS1 function inh | RE007 growth inh | StopGo reporter | Cruzain inh Det | SARS PLP yeast | Cruzain noTriton | MARV entry inh
21 | O=C(Nc1c[nH]c(=O)[nH]c1=O)c1cccc(F)c1 | ? | -2% | 20% | 5% | . | 1% | . | 14%
22 | CCCCc1ccc(NC(=S)N2CCN(c3ccccn3)CC2)cc1 | ? | -19% | -20% | 4% | . | 4% | . | -7%[46.1 µM]
23 | Clc1ccc(-n2cccc2/C=N/n2cnnc2)cc1 | -1% | 3% | 5% | -1% | 1.1% | -1% | -19% | -8%
24 | O=C(Nc1sc2c(c1C(=O)O)CCC2)C(=O)N1CCOCC1 | . | 15% | -14% | -2% | . | 3% | . | .
25 | CC1=C(C(=O)NCc2ccccc2)C(c2cccnc2)n2ncnc2N1 (stereo unspecified) | 12% | ? | -3% | -13% | 6.1% | 2% | -2% | 9%
26 | CC(=O)Nc1cnc2ccccc2n1 | -9% | -1% | -11% | 5% | 0.0% | -2% | -2% | 2%&2%[46.1 µM]
27 | COc1ccc(N=Cc2c(O)ccc3ccccc23)cc1 | ? | -3% | ? | -17% | . | -3% | . | ?
28 | CCOC(=O)c1c(N)nn(C(=O)C(C)C)c1-c1ccc(OC)cc1 | -20% | -15% | -10% | ? | -3.3% | -10% | -18% | -5%
29 | Cc1cccc(C(=O)N/N=C/c2ccoc2)c1 | 24%[46.1 µM] | 4% | 3% | 38%[activator] | . | 3% | . | 13%[46.1 µM]
30 | Cc1[nH]oc(=O)c1N=Nc1c(Cl)cccc1Cl | 7% | -57% | ? | ? | -6.6% | -65% | 7% | ?
31 | CCOc1cc(CNc2ccc3c(c2)CCC3)ccc1OC | . | 4% | . | . | -2.0% | 7% | -6% | -1%
32 | CCOC(=O)N1CCN(C(=O)c2cnn3c(C)c(Cc4ccc(C)cc4)c(C)nc23)CC1 | ? | -8% | 9% | -23% | 1.3% | 1% | ? | 1%
33 | O=C(CCC(=O)N(CC(=O)NC1CCCC1)Cc1ccccc1Cl)Nc1nccs1 | 14%[46.1 µM] | -13% | 0% | -6% | . | -2% | . | -6%[46.1 µM]
34 | CS(=O)(=O)c1ccccc1-c1nnc(NC(=O)c2ccc3c(c2)OCCO3)o1 | 25%[46.1 µM] | . | . | -4% | 2.4% | . | 3% | .
35 | COc1ccccc1OCCSc1nnc(C)n1-c1ccccc1 | -6% | -9% | -6% | 17% | 6.4% | 4% | -13% | -12%[46.1 µM]
36 | CCC1CCCN1Cn1cnc2c([nH]c3ccc(C)cc32)c1=O (stereo unspecified) | ? | ? | -15% | 2% | -12% | 4% | -2% | 0%
37 | CCN(CC)S(=O)(=O)c1ccc(C(=O)OCC(=O)N2CCN(C(=O)c3ccco3)CC2)cc1 | -12% | -10% | -2% | -15% | 6.1% | 3% | 6% | -1%
38 | COCCNC(=O)CSc1nc2cc3c(cc2c(=O)n1CCCCCC(=O)NCc1ccc(OC)cc1)OCO3 | 1%[46.1 µM] | . | . | 3% | 1.9% | . | -1% | .
39 | CC1=N/C(=C\c2ccccc2Cl)C(=O)O1 | 5% | . | 9% | 0% | . | . | . | ?
40 | Cc1ccc(N2C(=S)NC3c4cc(Cl)ccc4OC2(C)C3C(=O)N(C)C)cc1 (stereo unspecified) | ? | . | 10% | 12% | . | 18% | . | ?

Next section
entry | Structure | LASV entry inh | NS1 function inh | RE007 growth inh | StopGo reporter | Cruzain inh Det | SARS PLP yeast | Cruzain noTriton | MARV entry inh
41 | COc1cccc(NC(=O)C2CSC3(C)CCC(=O)N23)c1 (stereo unspecified) | -6% | . | -14% | 5% | . | 4% | . | 3%
42 | Cc1cc(C)n2nc(C(=O)N/N=C/c3cccs3)nc2n1 | 9%[46.1 µM] | -1% | 8% | 15% | . | 0% | . | 19%[46.1 µM]
43 | COc1ccc(Nc2nc(N)c([N+](=O)[O-])c(N3CCCC3)n2)cc1 | . | -7% | 17% | 0% | . | -2% | . | .
44 | CCOC(=O)CSc1nc2cc3c(cc2cc1C)OCO3 | 20% | 4% | -11% | 17% | . | 2% | . | 4%&4%[46.1 µM]
45 | Cc1ccc(NC(=O)Cn2c(=O)n(Cc3ccco3)c(=O)c3sc4ccccc4c32)c(C)c1 | 5%[46.1 µM] | . | . | -3% | -1.7% | . | -1% | -5%[46.1 µM]
46 | O=C1c2ccccc2C(O)(c2ccccc2)N1c1ccncc1 (stereo unspecified) | . | -55% | -3% | 36%[activator] | . | -1% | . | .
47 | CC1(C)C(=O)Nc2ccccc2N1C(=O)COC(=O)C12CC3CC(CC(O)(C3)C1)C2 | 18% | -2% | -1% | 6% | -0.3% | 4% | 7% | 15%
48 | CCCC(=O)Nc1c2c(nn1-c1ccc(C)cc1C)CSC2 | -14% | 10% | -11% | . | 1.4% | -12% | -4% | -14%
49 | N#CC1=C(N)N(c2ccccc2)C(c2ccco2)C1(C#N)C#N (stereo unspecified) | -13% | 1% | -19% | -10% | 0.0% | ? | 4% | -25%
50 | CCCOc1ccccc1C1C(C(=O)Nc2ccccc2)=C(C)Nc2nnnn21 (stereo unspecified) | -18%[46.1 µM] | . | . | -1% | -5.8% | . | 22% | -13%[46.1 µM]
51 | CC(=O)C1=C(C)Nc2ncnn2C1c1ccccc1 (stereo unspecified) | ? | 3% | -11% | 12% | . | -1% | . | 10%[46.1 µM]
52 | COc1ccc(NC(=O)Cn2cc(S(=O)(=O)N3CCC(C)CC3)c3ccccc3c2=O)cc1Cl | -15%[46.1 µM] | . | . | 18% | -5.6% | . | ? | ?
